HSV augment: enhancers of HSV replication in host cells, fold increase, host cell viability. HSV replication augmentation in cells. maximum fold increase. hit rate 0.005% among 220,000. AID 1956, 2009;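 active = peak rise of 1.5-fold or more in the series; tested in PC3 cells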;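 note: first round at 10 µM; read as green reporter fluorescence; hits show the peak of a series up to 25 µM; 1 = signal of infected wells without compound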
GALR2 ag: GALR2 receptor agonists, primary screen, cell-based. Galanin receptor type 2 (Homo sapiens), O43603. GALR2-expressing cells, agonist activation read-out. activation, %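 (tested at 5 µM)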. hit rate 0.48% among 140,000;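 active = above mean plus 3 SD of all compounds, about 5% in these data, not always enough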;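 note: 0% = vehicle buffer wells and 100% = reference agonist at full effect; tested in CHO reporter cells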
RGS16-Gao HTS: modulators of RGS16 binding to Galphao, primary screen, biochemical, human proteins, multiplexed bead flow cytometry; Regulator of G-protein signaling 16 (Homo sapiens) + Guanine nucleotide-binding protein …; bead-based flow cytometry RGS16-Galphao binding, fluorescence; actives lie on both sides; binding response (% of control), % at 10 µM; hit rate 0.38% among 220,000;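 active = below 25% or above 175%, edge rows of some plates excepted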;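 note: Galphao activated by GDP with aluminum fluoride before binding; 100% = wells without compound and 0% = beads without RGS; some results beyond the cut were filed as inactive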
Insulin prom inh: inhibitors of insulin promoter-driven GFP, primary screen, imaging, TRM-6 cells (human fetal islet line), eGFP reporter, cell count. reporter expression induced with tamoxifen. inhibition, % at 2 µM. hit rate 0.9% among 130,000;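 active = inhibition above the mean plus 3 SD, with well images judged a real hit on visual review, cut at about 60% in these data, passing the limit was not always enough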
PKD1 kinase inh: inhibitors of human PKD1 kinase, biochemical, fluorescence polarization. Serine/threonine-protein kinase D1 (Homo sapiens), Q15139. PKD1 kinase fluorescence polarization assay. inhibition, %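 (about 10 µM by stock and volumes)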. hit rate 0.056% among 200,000;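 active = inhibition of 50% or more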;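 note: controls were vehicle for no effect and a reference inhibitor for full effect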
Target sequence (Q15139 whole entry, looked up): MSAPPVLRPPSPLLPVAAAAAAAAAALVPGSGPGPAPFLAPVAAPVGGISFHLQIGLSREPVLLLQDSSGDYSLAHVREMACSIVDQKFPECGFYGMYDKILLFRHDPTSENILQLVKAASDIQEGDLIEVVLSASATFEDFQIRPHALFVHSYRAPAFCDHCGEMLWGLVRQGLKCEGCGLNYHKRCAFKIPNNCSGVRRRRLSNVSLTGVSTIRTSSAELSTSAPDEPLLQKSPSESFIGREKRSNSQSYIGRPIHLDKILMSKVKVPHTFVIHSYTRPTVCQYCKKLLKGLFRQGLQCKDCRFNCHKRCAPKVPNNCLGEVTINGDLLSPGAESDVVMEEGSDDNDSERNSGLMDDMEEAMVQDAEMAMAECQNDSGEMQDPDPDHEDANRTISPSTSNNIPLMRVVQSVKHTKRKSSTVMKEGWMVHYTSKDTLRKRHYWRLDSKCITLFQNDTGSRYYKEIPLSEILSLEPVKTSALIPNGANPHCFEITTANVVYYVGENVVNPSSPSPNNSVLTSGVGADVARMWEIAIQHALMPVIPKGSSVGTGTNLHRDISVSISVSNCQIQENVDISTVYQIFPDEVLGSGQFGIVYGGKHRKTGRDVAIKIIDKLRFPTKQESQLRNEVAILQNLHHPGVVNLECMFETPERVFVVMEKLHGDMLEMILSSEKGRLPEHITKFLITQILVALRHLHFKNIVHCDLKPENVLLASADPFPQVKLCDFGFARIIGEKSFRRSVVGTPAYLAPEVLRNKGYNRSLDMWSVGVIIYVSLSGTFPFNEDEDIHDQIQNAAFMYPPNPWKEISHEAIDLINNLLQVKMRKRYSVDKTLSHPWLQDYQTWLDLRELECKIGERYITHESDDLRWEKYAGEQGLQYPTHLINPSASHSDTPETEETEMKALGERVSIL
Insulin prom inh cell count: second read-out of Insulin prom inh, no call of its own (marks repeat the call); normalized cell count, %; measured here: cell count, toxicity; reference of the scale not given here;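 cells exposed to compound for 48 h; stained nuclei by imaging scaled within each plate; lower means fewer cells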
HSV augment primary fold: also measured in HSV augment; calls as there; fold increase; compound at 10 µM; measured here: primary screen fold increase 10 uM; tested in PC3 cells;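 GFP signal in the first replicate; 1 = infected wells without compound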
* hit, by the source's call; i = inactive; / = not tested or not shown. Compounds were not picked by outcome; any-hit rate near 1.3%.

item	Molecule	HSV augment	HSV augment primary fold	GALR2 ag	RGS16-Gao HTS
1	CN(C)c1cccc(C(=O)OCC(=O)Nc2ccccc2-c2ccccc2)c1	i	0.94	-2.0	102
2	O=[N+]([O-])c1ccc(C(=S)N2CCN(c3ccc(F)cc3)CC2)cc1	i	0.84	/	85
3	CCn1c(SCC(=O)c2[nH]c(C)c(C(C)=O)c2C)nnc1-c1ccncc1	i	0.97	-1.3	98
4	C=CCn1c(-c2cccs2)nc2ccccc21	i	0.89	-3.4	99
5	CC(=O)n1cc(/C=N/NC(N)=S)c2ccccc21	i	0.93	/	62
6	O=C1NC[C@H](Cc2ccc(O)cc2)N(CC2CCCCC2)C1=O	i	0.95	/	101
7	COc1ccc(-n2c(Cc3cccn3C)nnc2SCC(=O)Nc2cc(Cl)ccc2OC)cc1	i	1	-1.3	96
8	CCOc1ccccc1NC(=O)CNS(=O)(=O)c1ccc2nc(C)sc2c1	i	0.92	/	89
9	CC(C(=O)OCC(=O)Nc1ccc2c(c1)OCO2)N1C(=O)c2ccccc2C1=O (centres undefined)	i	1	-3.2	95
10	O=C(CN1CCN(c2ccc(O)cc2)CC1)Nc1cc(S(=O)(=O)N2CCCCC2)ccc1Cl	i	0.85	/	98
11	CCOC(=O)c1[nH]c2c(c1C)C(=O)CC(c1ccco1)C2 (centres undefined)	i	0.63	0.6	101
12	S=c1[nH]c2ccccc2c2ccccc12	i	0.91	/	105
13	O=C(Nc1ccc2c(c1)OCO2)c1sc2cc(Cl)ccc2c1Cl	i	0.92	-1.4	104
14	COc1cc(C2NC(=O)NC(C)=C2C(=O)NCc2ccccc2)c(Cl)cc1O (centres undefined)	i	1	-2.0	94
15	NS(=O)(=O)c1ccc(NC(=O)COc2ncnc3c2cnn3-c2ccccc2)cc1	i	0.89	/	103

item	Insulin prom inh	Insulin prom inh cell count	PKD1 kinase inh
1	/	/	-6
2	/	/	-7
3	-6	76	-4
4	80*	88*	-3
5	/	/	20
6	/	/	/
7	/	/	-3
8	-43	92	5
9	-23	139	-3
10	/	/	-5
11	/	/	-4
12	/	/	/
13	/	/	4
14	-11	78	-3
15	-59	78	4

Continued:
item	Molecule	HSV augment	HSV augment primary fold	GALR2 ag	RGS16-Gao HTS
16	CCOC(=O)c1oc2ccccc2c1NC(=O)c1cccc(OC)c1	i	0.91	0.8	108
17	CN1CCN(c2ccc(CNS(=O)(=O)Cc3ccc(Cl)cc3)cc2)CC1	i	0.91	/	105
18	c1ccc(CCc2nn3c(-c4ccncc4)nnc3s2)cc1	i	0.81	-2.3	98
19	O=C(CCCNC(=O)c1ccc(Cl)cc1)Nc1ccc(S(=O)(=O)Nc2ncccn2)cc1	i	0.93	/	102
20	CCN1CCN(C(=O)c2ccc3c(=O)n(Cc4ccccc4OC)c(=S)[nH]c3c2)CC1	i	1.1	-2.0	95
21	Cc1ccccc1Nc1c(-c2cccnc2)nc2ccc(Br)cn12	i	1.1	/	102
22	CCOc1ccc(C(=O)Nc2cccc(NC(=O)c3cccs3)c2)cc1[N+](=O)[O-]	i	0.92	-0.2	102
23	CCC(CC)c1nnc(NC(=O)c2ccc(N3CCCC3=O)cc2)s1	i	0.87	-3.0	99
24	N/C(COc1ncn(-c2ccccc2)n1)=N\S(=O)(=O)c1ccc(Cl)cc1Cl	i	0.84	/	102
25	O=C(c1ccc(Br)o1)N(Cc1ccccc1)c1ccccn1	i	0.72	-2.7	105
26	COc1ccc(N/C(C)=C2/C(=O)C(=O)N(CCO)C2c2ccc([N+](=O)[O-])cc2)cc1 (centres undefined)	i	1	-0.7	117
27	CCOC(=O)c1ccccc1NC(=O)c1cccnc1	i	0.91	1.7	88
28	O=C(O)c1cccc(COc2ccccc2Cl)c1	i	0.94	/	100
29	CC1=C(C)/C(=N\OS(=O)(=O)c2ccccc2)C=CC1=O	i	0.7	-1.9	105
30	N#Cc1ccccc1Sc1ccccc1N	i	0.89	-2.0	0.4*

item	Insulin prom inh	Insulin prom inh cell count	PKD1 kinase inh
16	-31	152	-12
17	/	/	/
18	71	165	2
19	/	/	/
20	/	/	-28
21	/	/	0
22	-48	162	-3
23	6	65	-4
24	-71	113	-2
25	-36	136	0
26	-38	110	0
27	42	117	-6
28	/	/	/
29	-183	15	-8
30	-29	120	-7

Later entries
item	Molecule	HSV augment	HSV augment primary fold	GALR2 ag	RGS16-Gao HTS
31	O=C1C(=Nc2cccc(Cl)c2)CC(c2ccc(Cl)cc2)N1c1cccc(Cl)c1 (centres undefined)	i	1	/	115
32	O=C(C1=C[C@@H](C2CCCCC2)C[C@@H](OCCCCO)O1)N1CCOCC1	i	0.84	/	98
33	Cc1occc1-c1nnc(SCC(=O)N2CCCCC2)o1	i	0.98	/	103
34	COc1ccc(C(C)=O)cc1CSc1nc2ccccc2o1	i	1	0.8	98
35	CCC(C)(C(=O)NC1CCCC1)N(Cc1cccs1)C(=O)c1ccccn1 (centres undefined)	i	0.97	/	94
36	Cc1ccc(NC(=O)CCNS(=O)(=O)c2cccc3nonc23)cc1	i	0.86	-1.1	97
37	CCOc1ccc(N2CC(O)=C(c3nc4ccccc4c(=O)[nH]3)C2=N)cc1	i	0.73	/	96
38	Cc1ccc(NC(=O)/C=C/c2cccs2)c([N+](=O)[O-])c1	i	0.57	-1.9	92
39	COc1cccc(C(=O)N(c2ccc(C)cc2)C2C=CS(=O)(=O)C2)c1 (centres undefined)	i	0.7	/	93
40	O=C(Nc1ccc(F)cc1)C1CCCN1S(=O)(=O)c1cccc2nsnc12 (centres undefined)	i	0.95	/	99
41	Fc1ccc(-c2ccc(-c3nn4c(-c5ccco5)nnc4s3)o2)cc1	i	1.1	-0.2	91
42	CCOC(=O)c1c(NC(C)=O)sc2c(O)c(CN3CCN(CC)CC3)ccc12	i	0.87	-1.4	99
43	Cc1cc(C)n2nc(C(=O)OCC(=O)Nc3ccc4c(c3)OC(F)(F)O4)nc2n1	i	0.92	-0.4	100
44	COc1ccc2[nH]c(=O)c(CNc3ccc(C)cc3C)cc2c1	i	0.94	/	79
45	COc1ccc(C(=O)NC(=S)NCc2cccnc2)cc1[N+](=O)[O-]	i	0.98	0.1	96

item	Insulin prom inh	Insulin prom inh cell count	PKD1 kinase inh
31	/	/	/
32	/	/	-5
33	/	/	-6
34	0	49	-2
35	13	81	0
36	/	/	-8
37	/	/	4
38	-23	98	6
39	-33	78	2
40	/	/	/
41	-4	116	13
42	86*	89*	-2
43	54	65	-4
44	/	/	/
45	-71	160	-1

(more compounds)
item	Molecule	HSV augment	HSV augment primary fold	GALR2 ag	RGS16-Gao HTS
46	CCCc1c(C(=O)OCC)sc(N)c1C#N	i	1.1	/	96
47	O=C1c2ccccc2C(O)N1Cc1cccs1 (centres undefined)	i	0.93	/	96
48	Cc1cc(-c2csc3nc[nH]c(=S)c23)cc(C)c1C	i	0.8	/	100
49	Cc1ccc2cc(/C=N/Nc3nc4ccccc4[nH]3)c(Cl)nc2c1	i	0.79	-3.4	92
50	COC(=O)CCCc1nc2ccccc2s1	i	0.98	-1.8	100
51	CC(=O)Nc1cc(C)nn1-c1nc(C)cc(C)n1	i	1	/	103
52	Cc1cccc2c1N1C(=O)c3c(C(=O)O)cccc3C1CC2C (centres undefined)	i	0.92	-2.4	100
53	CC(C)C(=O)N1CCC2(CC1)Oc1ccc(F)cc1C(=O)C21CC(c2ccccc2)=NO1 (centres undefined)	i	0.8	/	104
54	Cc1[nH]nc2c1C(c1ccc(-c3ccc(Cl)cc3)o1)C(C#N)=C(N)O2 (centres undefined)	i	0.71	0.7	109
55	COc1ccccc1Nc1nc(-c2sc(NC(=O)CC(C)C)nc2C)cs1	i	0.87	-0.5	83
56	CCCn1nnnc1NC(=O)CSc1ccc(Cl)cc1	i	0.88	2.6	102
57	CCCCNC(=O)CCn1nc(-c2ccc(Cl)cc2)c2ccccc2c1=O	i	1	/	109
58	Cc1cc(C)c2ccc(/C=N/O)nc2c1O	i	0.8	/	92
59	CSc1ccc(/C=N/N2CCN(c3ccccc3)CC2)cc1	i	0.94	/	94
60	OC1(c2ccc(OC(F)F)cc2)CSC(=Nc2cccnc2)N1C1CC1 (centres undefined)	i	0.88	-0.6	101

item	Insulin prom inh	Insulin prom inh cell count	PKD1 kinase inh
46	/	/	-7
47	/	/	-1
48	/	/	-5
49	/	/	2
50	-7	186	-2
51	30	151	-1
52	-133	127	-4
53	/	/	/
54	28	106	-3
55	-13	66	6
56	65	58	-1
57	/	/	/
58	/	/	/
59	/	/	-2
60	-9	67	-3

Later entries.
item	Molecule	HSV augment	HSV augment primary fold	GALR2 ag	RGS16-Gao HTS
61	CC(C)c1ccc(NC(=O)N2CCCC2C(=O)Nc2ccc(-n3cnnn3)cc2)cc1 (centres undefined)	i	1	/	115
62	CCN1CCN(c2nc(N(C)c3ccccc3)nc(N)c2[N+](=O)[O-])CC1	i	0.94	/	100
63	Cc1noc(-c2ccc(Cl)cc2)c1C(=O)O/N=C(\N)c1ccc(C(C)(C)C)cc1	i	0.64	/	100
64	COc1ccc(Cl)cc1C(=O)O/N=C(\N)c1ccncc1	i	1	/	99
65	CN(C[C@H](Cc1ccccc1)N(C[C@H](c1ccccc1)N(CCc1ccccc1)N=O)N=O)N=O	i	0.73	/	99
66	CC(Oc1ccc(Cl)cc1Cl)c1nc(-c2ccc(NC(=O)c3ccccn3)cc2)no1 (centres undefined)	i	0.87	-1.9	99
67	COc1cc(/C=C/C(=O)OCC(=O)Nc2ccccc2Cl)cc(OC)c1OC	i	0.98	/	93
68	C#Cc1cccc(-n2nnc(C(C)=O)c2C)c1	i	1.1	/	90
69	COc1cccc(OC)c1OCCOc1ccccc1OC(C)C	i	0.93	-2.0	100
70	CCOCCCNC(=O)CNC(=S)N(Cc1ccc(C)cc1)Cc1ccco1	i	1	/	110
71	CCCCCn1c(CN2CCCCC2CC)nc2c1c(=O)n(C)c(=O)n2C (centres undefined)	i	0.92	-0.1	/
72	CCS(=O)(=O)N1CCN(c2ccc(S(=O)(=O)N3CCOCC3)cc2)CC1	/	/	/	109
73	OC(COc1cccc(OCC(O)CN2CCCC2)c1)CN1CCCC1 (centres undefined)	i	0.91	-0.1	116
74	Cc1cccc(Cn2ccc(N)n2)c1	i	0.97	/	104
75	COc1ccc(OC)c(C(=O)c2coc3ccc(O)c(CN4CCOCC4)c23)c1	i	1	-0.9	101

item	Insulin prom inh	Insulin prom inh cell count	PKD1 kinase inh
61	/	/	-6
62	/	/	/
63	/	/	/
64	/	/	/
65	/	/	-2
66	-23	119	-4
67	/	/	-2
68	/	/	/
69	-6	66	1
70	0	140	0
71	/	/	-9
72	15	98	1
73	-61	88	0
74	27	108	-2
75	8	43	-3

Next part:
item	Molecule	HSV augment	HSV augment primary fold	GALR2 ag	RGS16-Gao HTS
76	O=S(=O)(NCc1ccccc1)c1ccc2c(c1)OCCO2	i	0.99	-1.7	/
77	N#Cc1c(-c2ccccc2F)cc(-c2cccnc2)nc1N	i	0.88	-0.3	106
78	COc1ccc(N(C(=O)c2cccc([N+](=O)[O-])c2)S(=O)(=O)c2cccs2)cc1	i	0.9	/	95
79	COc1ccc(C(CC(=O)N2CCCCC2)NC(=O)C(F)(F)F)cc1 (centres undefined)	i	0.83	/	103
80	CCc1c(C#N)c(SCCC(=O)Nc2ccc(C)cc2)nc2c1C(=O)CC(C)(C)C2	i	0.97	-2.9	100

item	Insulin prom inh	Insulin prom inh cell count	PKD1 kinase inh
76	/	/	3
77	28	84	-4
78	/	/	-3
79	/	/	3
80	-41	58	-2

Reformatted with values under each structure: part of the list above.
Second line of a record: HSV augment	HSV augment primary fold	GALR2 ag	RGS16-Gao HTS	Insulin prom inh	Insulin prom inh cell count	PKD1 kinase inh
[76] O=S(=O)(NCc1ccccc1)c1ccc2c(c1)OCCO2
  i	0.99	-1.7	/	/	/	3
[77] N#Cc1c(-c2ccccc2F)cc(-c2cccnc2)nc1N
  i	0.88	-0.3	106	28	84	-4
[78] COc1ccc(N(C(=O)c2cccc([N+](=O)[O-])c2)S(=O)(=O)c2cccs2)cc1
  i	0.9	/	95	/	/	-3
[79] COc1ccc(C(CC(=O)N2CCCCC2)NC(=O)C(F)(F)F)cc1 (centres undefined)
  i	0.83	/	103	/	/	3
[80] CCc1c(C#N)c(SCCC(=O)Nc2ccc(C)cc2)nc2c1C(=O)CC(C)(C)C2
  i	0.97	-2.9	100	-41	58	-2

Assay outcomes (PubChem)
